Mtb MenB inh = M. tuberculosis MenB inhibitors, primary screen, biochemical, absorbance. MenB enzyme assay, absorbance read-out; some hits fall short of the stated cut. inhibition, %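 (about 12 µg/mL by stock and volumes)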. 0.43% of 100,000 active. AID 540299, 2011. 1,4-dihydroxy-2-naphthoyl-CoA synthase (Mycobacterium tuberculosis (strain ATCC 25618 / …;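 active = mean of two replicates above 30%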;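 note: 0% = no compound and 100% = wells with inactive enzyme; the first replicate is given; strong numbers were not always called active; inactives centre near -10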
Target sequence (P9WNP5 whole entry, looked up): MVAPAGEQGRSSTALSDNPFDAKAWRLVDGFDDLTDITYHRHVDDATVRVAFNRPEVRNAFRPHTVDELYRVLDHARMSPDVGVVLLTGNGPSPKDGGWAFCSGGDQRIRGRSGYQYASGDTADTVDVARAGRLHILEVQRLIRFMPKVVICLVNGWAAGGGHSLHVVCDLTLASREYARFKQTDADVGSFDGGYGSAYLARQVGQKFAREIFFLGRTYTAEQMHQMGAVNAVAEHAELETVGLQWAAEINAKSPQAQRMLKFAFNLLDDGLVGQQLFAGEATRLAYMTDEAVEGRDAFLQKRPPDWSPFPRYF
Polio RdRp inh = poliovirus RdRp elongation inhibitors, primary screen, biochemical, fluorescence polarization, total intensity. poliovirus polymerase elongation; hits give low values. % elongation, % (compound at 16.7 µg/mL). Genome polyprotein (Poliovirus type 1 (strain Mahoney)), P03300. 0.66% of 150,000 active; in the data active = % elongation below about 90%; note: some results filed as inactive read as strong as hits
MbtI inh = MbtI salicylate synthase inhibitors, primary screen, biochemical, fluorescence intensity. purified MbtI enzyme, fluorescence intensity read-out. inhibition, %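 (about 17 µg/mL by stock and volumes)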. 0.89% of 100,000 active. AID 493033, 2011;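 active = above 50% in both replicates, above 80% if mildly self-fluorescent; inactive = the rest, strongly fluorescent compounds included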;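 note: 0% = mean of negative and 100% = mean of positive controls; one replicate is shown; some compounds called inactive have numbers as strong as hits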
Target sequence (P9WFX0 whole entry, looked up): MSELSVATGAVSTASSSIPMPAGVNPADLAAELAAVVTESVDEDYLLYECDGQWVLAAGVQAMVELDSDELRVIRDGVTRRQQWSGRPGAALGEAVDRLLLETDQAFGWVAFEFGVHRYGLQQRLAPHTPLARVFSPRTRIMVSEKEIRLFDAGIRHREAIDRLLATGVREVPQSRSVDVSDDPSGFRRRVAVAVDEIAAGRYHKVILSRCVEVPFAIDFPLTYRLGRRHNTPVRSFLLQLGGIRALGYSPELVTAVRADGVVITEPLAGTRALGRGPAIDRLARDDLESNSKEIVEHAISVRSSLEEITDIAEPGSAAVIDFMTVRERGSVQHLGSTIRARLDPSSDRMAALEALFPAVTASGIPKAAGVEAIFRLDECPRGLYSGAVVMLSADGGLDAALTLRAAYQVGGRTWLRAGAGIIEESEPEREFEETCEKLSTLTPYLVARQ
Polio RdRp inh intensity = also measured in Polio RdRp inh; calls as there; % elongation; measured here: total intensity read-out; formula for this scale not given here;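 total fluorescence in place of polarization; lower means less elongation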
Active calls of the source: *; nt = not tested or not shown.

SMILES	Mtb MenB inh	Polio RdRp inh	Polio RdRp inh intensity	MbtI inh
N#CCc1ccc(NC(=O)Nc2ccccc2)cc1	-14	104	111	-18
CC(C)(C)OC(=O)N/N=C\c1ccco1	13	101	100	13
CC(Sc1nnc(NC2CC2)s1)C(=O)Nc1ccc2c(c1)OCO2 (stereo not drawn)	-7	99	94	14
Cc1cc(C)c(C2=NON3N(C(=O)c4cccs4)c4ccccc4N23)c(C)c1	-17	102	107	-4
Cc1cc(C)c(C)c(S(=O)(=O)N(C)C)c1C	-9	108	102	-12
CN(C)c1cccc(C(=O)Nc2ccc(Br)cc2)c1	-8	103	104	-36
Cc1nc(SCC(=O)Nc2ccc3c(c2)OCCCO3)n(C2CCCCC2)c1C	-26	104	99	-8
CCOc1ccc(C(O)C2CCNCC2)cc1 (stereo not drawn)	4	100	102	-14
Cc1ccnc(SC(=O)c2cccnc2)n1	-22	103	107	9
Cc1ccc(S(=O)(=O)N/N=C2\C3CN4CCN(C3)CC2(c2ccccc2)C4)cc1	7	103	104	-3
Cc1c(OCC(=O)N(C)c2ccccc2)ccc2c3c(c(=O)oc12)CCC3	nt	102	103	-8
CCc1oc2ccccc2c1C#N	-14	105	108	-14
CCn1c(/C(C#N)=C(\O)CCc2ccccc2)nc2ccccc21	-29	99	101	-14
CC1(C)NC(=O)C(C#N)=C(SCc2ccccc2)S1	-1	101	102	12
O=C(CCCn1nc(-c2ccccc2)c2ccccc21)NCc1ccco1	-21	103	102	4
CN(C)/C=C(\C=[N+](C)C)c1cc(/C(C=[N+](C)C)=C\N(C)C)[nH]n1	-1	108	106	nt
Cn1c(C(=O)N2CCCC2)cc2c(=O)n3ccccc3nc21	-23	99	101	106
CCOc1ccc(-c2cc(NC(=O)c3cc4ccc5cccnc5c4[nH]3)on2)cc1OCC	-1	100	104	-31
Cc1ccc(CN2CCN(CC(=O)NCCCN3CCN(c4cccc(Cl)c4)CC3)C2=O)cc1	-1	100	101	-7
NC(=S)CS(=O)(=O)c1ccccn1	9	104	106	3
NC(=O)c1ccccc1OC(C(=O)N1CCCC1)c1ccccc1 (stereo not drawn)	-18	102	104	-2
CCc1nc2cccnc2n1CCNC(=O)NC1CCCCC1	-18	90	121	0
CCC(=O)N(c1nnc(SCC(=O)N2CCCC2=O)s1)C1CC1	-8	98	93	-1
O=C(O)Cn1ncc2c3ccccc3n(Cc3ccccc3F)c2c1=O	4	99	102	87
N#CCN1CCC/C1=C(/C#N)C(=O)c1ccccc1	-14	100	101	7

(next part)
SMILES	Mtb MenB inh	Polio RdRp inh	Polio RdRp inh intensity	MbtI inh
c1nncn1/N=C1/CCCc2nonc21	-44	98	103	84*
Cc1ccc(CN(C)C(=O)c2cccc(N(C)C)c2)o1	-4	101	102	-15
C1=C(c2ccccc2)Nc2nnnn2C1	3	102	96	0
CC1(C)CC2CC(C)(CN2c2nc(N)c3c(N)nc4c(c3c2C#N)CC(=O)N4C2CCCC2)C1 (stereo not drawn)	-13	101	102	-286
O=C(Cn1c(=O)c2cccn2c2ccccc21)NCCCN1CCCC1	-28	103	101	10
CCc1c(C)nc2ncnn2c1N1CCC(C(=O)Nc2ccccc2)CC1	-11	102	102	8
COc1cccc(NC(=O)Nc2cc(C(=O)O)ccc2N2CC3CC(C2)c2cccc(=O)n2C3)c1 (stereo not drawn)	-30	102	100	15
CCC(CC)NC(=O)CCc1c(C)nc2nc(N)nn2c1C	-56	100	101	97
C=CCN(c1ccc(C(N)=O)cc1)S(C)(=O)=O	-19	103	102	-14
O=C(CSc1nnc(-c2ccco2)n1Cc1ccccc1)NC1CCCc2ccccc21 (stereo not drawn)	-19	111	112	14
CCOc1ccccc1NC(=O)CCN1CCN(S(=O)(=O)c2ccc(Br)cc2)CC1	-3	100	102	-5
Cc1onc(-c2c(F)cccc2Cl)c1C(=O)N=C(N)N1CCOCC1	14	99	95	-4
O=C(Cn1nc2n(c1=O)-c1ccccc1SC2)NC(=O)Nc1ccccc1	0	102	105	-11
O=C(c1nn2c(c1Cl)NC(c1cccs1)CC2C(F)(F)F)N1CCOCC1 (stereo not drawn)	-1	103	101	-10
O=C(c1ccccc1)n1nc(-c2ccco2)nc1SCc1ccccc1	10	99	100	7
O=C(O)CC(NS(=O)(=O)c1cccs1)c1ccccc1 (stereo not drawn)	14	107	102	-3
Cc1ccc(C(=O)c2ccccc2C(=O)O)c(O)c1	-31	100	97	-2
CC1(C)OC2C(CS(C)(=O)=O)OC(n3ncc(=O)[nH]c3=O)C2O1 (stereo not drawn)	-37	104	103	-11
O=C(CCc1nc(-c2ccccc2)no1)Nc1cccnc1	-30	102	101	2
O=C1c2cccnc2C(=O)N1CCc1ccc(S(=O)(=O)NCCc2ccccc2)cc1	-2	102	104	-3
NNC(=O)Cc1csc(-c2ccc(F)cc2)n1	0	100	102	6
COc1ccc(-c2cc3c(n2Cc2ccc(F)cc2)CC(C)(C)CC3=O)cc1	-9	104	99	17
O=C(O/N=C1\CCCc2oc3c(c21)CCCC3)c1ccc(F)cc1	17	101	102	2
Cc1nc2ccc(NC(=O)C3=CC=CN4CCS(=O)(=O)N=C34)cc2s1	-10	105	107	2
CCOC(=O)CCc1nn(C)c(=O)c2ccccc12	-30	104	100	-5

(listing goes on)
SMILES	Mtb MenB inh	Polio RdRp inh	Polio RdRp inh intensity	MbtI inh
O=C1c2ccccc2C(Nc2cccnc2)N1Cc1ccccc1 (stereo not drawn)	-9	101	104	9
CO/N=C1/CC(C)(C)Cc2c(C(=O)O)sc(SC)c21	12	102	104	10
Cn1c(-c2ccc(Cl)cc2)cs/c1=N\C(=S)NCCc1ccccc1	-1	102	107	4
CC(C)(C)NC(=O)c1ccc(C(=O)O)s1	nt	101	105	-12
O=C(Nc1ccc2c(c1)OCO2)C12CC3CC(CC(C3)C1)C2	2	101	106	nt
CCCNC(=O)c1ccc(NC(C)=O)cc1	-8	107	105	nt
COc1cc(/C=c2\sc3nc(-c4oc5ccccc5c4C)nn3c2=O)cc(OC)c1OC	-11	101	101	-6
COC(=O)CC1SC(=O)NC1=Nc1ccc(OC)cc1 (stereo not drawn)	-9	102	101	7
CN(Cc1ccccc1)C(=O)COC(=O)Cc1c(Cl)cccc1Cl	nt	100	106	-3
CCOC(=O)CC1=Nn2c(nnc2-c2ccc(Cl)cc2)SC1	-3	93	89	95
CCOc1ccc(C(=O)NCC(=O)N2CCC(C)CC2)cc1OCC	-21	105	110	9
CCN(CC)c1ccc(C(=O)O)cc1	0	103	102	15
Cc1cc(C)nc(SCC(=O)N/N=C2\CCc3ccccc32)n1	-36	99	106	29
CCOC(=O)c1cc(C)nn1C(=O)c1c(F)cccc1Cl	-14	103	111	-9
C(=C\c1ccccc1)/CSc1ncnc2ccccc12	3	105	106	-4
COc1ccc(OCC(=O)NCCc2ccccc2)cc1	-7	104	100	-7
COCC(=O)N(C)c1nnc(-c2ccc(OC)cc2)s1	-31	101	101	20
Cc1cccc(CCNC(=O)c2ccc3c(=O)n(Cc4ccc5c(c4)OCO5)c(=O)[nH]c3c2)c1	-13	99	102	-16
O=C1C(Cc2ccc(F)cc2)S/C(=N/N=C/c2cccnc2)N1Cc1ccco1 (stereo not drawn)	-12	104	105	0
Cc1ccc2cnn(CCCC(=O)NCc3ccccc3)c2c1	-24	106	106	4
CC(C)(C)C(=O)C[n+]1ccc(/C=N/O)cc1	-13	102	102	8
CCOC(=O)c1c(C)oc2c1c(/C=N/c1cccc(C)n1)c(O)c1ccccc12	-22	85	125	13
COC(=O)c1ccc2ccccc2n1	-16	102	94	nt
COC(=O)CSc1nnnn1-c1ccccc1	-2	107	105	3
CCCCC(=O)Nc1ccc(-c2csc(-c3ccccc3)n2)cc1	-5	109	108	nt

Next part (3 carried over from the part before).
SMILES	Mtb MenB inh	Polio RdRp inh	Polio RdRp inh intensity	MbtI inh
COC(=O)c1ccc2ccccc2n1	-16	102	94	nt
COC(=O)CSc1nnnn1-c1ccccc1	-2	107	105	3
CCCCC(=O)Nc1ccc(-c2csc(-c3ccccc3)n2)cc1	-5	109	108	nt
O=C(CSc1nc2ccccc2[nH]1)NCc1ccccc1	3	109	110	13
CC1=C(C(=O)c2ccccc2)C(c2ccc(C)o2)n2c(nc3ccccc32)N1 (stereo not drawn)	-12	98	102	nt
Cc1ccc(CNCC(O)COCC2CCCO2)n1C (stereo not drawn)	11	98	111	-27
COc1ccc(/C=N/NC(=O)Cn2cncn2)cc1	-15	97	92	14
O=C1c2ccccc2C(=O)N1CCSC1=NN2CCS(=O)(=O)N=C2S1	1	84*	82*	29
Cc1ccccc1NC(=O)N(C)C1CCN(C)CC1	-4	104	105	-6
O=C(Nc1ccccc1NC(=O)c1ccc(Br)o1)c1ccc(Br)o1	nt	103	109	-5
CC(Sc1nc2ccc(Br)cc2[nH]1)C(=O)O (stereo not drawn)	-9	99	95	5
CC(C(=O)NCc1ccc2c(c1)OCO2)n1ncc(Cl)c(Cl)c1=O (stereo not drawn)	-6	102	102	-7
COc1ccc(C(=O)OCC(=O)C(C)(C)C)c(OC)c1OC	13	102	102	4
CC(c1ccccc1F)n1cc(C(=O)NC2CCCC2)nn1 (stereo not drawn)	28	100	101	-3
O=c1[nH]c(CN2CCCC2)nc2scc(-c3ccccc3)c12	-6	106	103	12
c1ccc(-n2nnnc2Sc2nnc(C3COc4ccccc4O3)n2-c2ccccc2)cc1 (stereo not drawn)	-17	101	103	4
NC(=O)c1nnn(Cc2ccccc2)c1N	-11	104	106	nt
CCCCNc1ncnc2c1[nH]c1ccc(C)cc12	0	105	103	114
O=C(O)C(c1ccccc1)N1CCCCC1 (stereo not drawn)	8	101	99	nt
C#CCN1C(=O)S/C(=C/c2cc(OC)c(OCC(=O)O)cc2Br)C1=O	-22	99	104	-21
Cc1ccc(-c2cc3c(n2Cc2cccs2)CC(C)(C)CC3=O)cc1	2	99	103	0
O=C(NCc1cn2ccsc2n1)C(F)(F)F	nt	103	100	-13
CC(=O)Nc1cccc(NC(=O)Nc2ccccc2)c1	-3	100	99	-6
CCN(CC(=O)NCc1cccs1)C(=O)c1oc2ccc(OC)cc2c1C	2	106	97	38
O=C(CSc1nc2ccccc2s1)OCN1C(=O)c2ccccc2C1=O	-24	100	107	-6
N#Cc1c(NCc2ccccc2)ccnc1Cl	-29	99	102	-13
CC(=O)OCCOCn1cc(I)c(=O)[nH]c1=O	1	101	102	-4
CC1(CC(=O)N/N=C/c2ccc(Br)o2)SCCS1	-27	103	106	23

The list continues.
SMILES	Mtb MenB inh	Polio RdRp inh	Polio RdRp inh intensity	MbtI inh
CCC(C)(C)C1CCC(=NNC(=O)c2ccoc2C)CC1 (stereo not drawn)	-2	100	104	-12
O=C(CSc1ccc2nnc(-c3ccncc3)n2n1)N1CCCC1	-30	100	104	8
FC(F)(F)c1ccc(CN2CCCCCCC2)cc1	0	100	100	0
O=C1Nc2ccccc2S/C1=C\c1ccccc1	-48	101	108	-23
CC(C)NC(=O)Cc1ccc(Br)cc1	-4	103	100	-6
O=C(Nc1cccc(-c2nnn(CC(=O)N3CCc4ccccc4C3)n2)c1)C1CCC1	2	104	104	2
Cc1ccccc1N1C(=O)Cc2ccccc2C1=O	8	48*	62*	-6
FC(F)(F)c1ccc(NCc2cn3ccccc3n2)cc1	16	104	109	nt
O=C(COC(=O)c1ccccc1NCCO)NCc1ccc(F)cc1	-1	101	113	103
CCOC(=O)N/N=C\c1cn(C)c2ccccc12	9	101	102	15
Cc1cc(NC2=CC(=O)CCC2)ccc1I	nt	104	105	3
O=C(OC(C(=O)c1ccccc1)c1ccccc1)c1ccco1 (stereo not drawn)	1	104	107	1
CCOC(=O)c1ccc2[nH]c3c(c2c1)CCCCC3=O	29	101	103	-445
N#Cc1sc2nc(-c3ccncc3)cc(C(F)(F)F)c2c1N	8	109	122	nt
COC(=O)COc1cc(C)nc(SC)n1	-13	104	104	-4
O=C(NC1CCCCCCCCCCC1)c1ncn[nH]1	-8	105	105	nt
CCC1CCCCN1C(=O)CN1C(=O)c2ccccc2C1=O (stereo not drawn)	-12	101	103	2
CC(C)n1c(SCC(=O)O)nc2cc(Cl)ccc21	5	103	110	-5
CCOC(=O)c1c(C)oc2ncnc(N(C)Cc3ccccc3)c12	-14	100	101	-3
CCCc1cc(=O)[nH]c(SCC(=O)c2ccccc2OC)n1	-43	98	97	44
Cc1ccc(NC(=O)Nc2c(C)noc2-c2ccc(C(F)(F)F)cc2)cc1	15	100	103	3

Among those listed so far, these have bromine:
SMILES	Mtb MenB inh	Polio RdRp inh	Polio RdRp inh intensity	MbtI inh
CN(C)c1cccc(C(=O)Nc2ccc(Br)cc2)c1	-8	103	104	-36
CCOc1ccccc1NC(=O)CCN1CCN(S(=O)(=O)c2ccc(Br)cc2)CC1	-3	100	102	-5
O=C(Nc1ccccc1NC(=O)c1ccc(Br)o1)c1ccc(Br)o1	nt	103	109	-5
CC(Sc1nc2ccc(Br)cc2[nH]1)C(=O)O (stereo not drawn)	-9	99	95	5
C#CCN1C(=O)S/C(=C/c2cc(OC)c(OCC(=O)O)cc2Br)C1=O	-22	99	104	-21
CC1(CC(=O)N/N=C/c2ccc(Br)o2)SCCS1	-27	103	106	23
CC(C)NC(=O)Cc1ccc(Br)cc1	-4	103	100	-6

Screening results (PubChem)
